CDC25B-CDK2 inh: human CDC25B-CDK2/CyclinA binding inhibition; P30305+P24941; HTRF CDC25B-CDK2/CyclinA binding, anti-His/anti-Flag; stronger effect = higher value; z-score (concentration not given with the values); 0.72% of 94,000 active; AID 1259370;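 also: score is relative to mean and SD of negative controls; strong numbers were not always called active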
TAR Tat displ: HIV-1 TAR-Tat binding disruption. HIV-1 TAR RNA, Tat peptide displacement FRET; stronger effect = higher value. z-score (concentration not given with the values). AID 1259389. 0.6% of 100,000 active;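 also: score is relative to mean and SD of negative controls; some compounds called inactive have numbers as strong as hits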
The depositor's hits bear a star; x = not tested or not shown.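 The calls were made as follows: active = z-score from 3 up in half or more of its runs; inactive = the rest.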 Outcome played no part in choosing rows; overall some 0.89% were active at least once.

SMILES	CDC25B-CDK2 inh	TAR Tat displ
CCCSCCCn1cnc2c([nH]c3ccc(OC)cc32)c1=O	-1.7	1.6
CCCCCCCCCCCCCCCc1cccc(O)c1C(=O)O	x	0.34
Cc1csc2nc(COc3ccccc3Cl)cc(=O)n12	0.2	-1.2
Cc1nn2c(-n3cccc3)c(-c3ccc(F)cc3)nc2s1	x	-1.4
COc1ccc(OC)c(C2CCN(c3c(O)c(=O)c3=O)C2)c1 (stereo unspecified)	x	-0.41
O=C(CCc1nnc2ccc(N3CCOCC3)nn12)Nc1cc(F)ccc1F	x	1.4
O=C(NC1CCCC1)C1c2cc(Br)ccc2OCC(=O)N1CCC1=CCCCC1 (stereo unspecified)	x	1.4
Cc1ccc(SCCS(=O)(=O)c2ccc(F)cc2)cc1	-0.9	x
COc1ccc(C2=NOC(COc3ccc([N+](=O)[O-])cc3)C2)cc1 (stereo unspecified)	-2.2	x
Cc1ccc(-c2noc(C3CCCCC3)n2)cc1	0.61	1.3
Cc1ccc(C(=O)n2c(=O)oc3ccc(Cl)cc32)cc1	x	-1.3
CCOC(=O)c1cc2cc3ccc(C)cc3nc2s1	-0.68	-0.71
CN(C)c1ccc(C(CNS(=O)(=O)c2cc(F)ccc2F)N2CCOCC2)cc1 (stereo unspecified)	x	1.3
Cc1nc2sc(C(c3ccc(Cl)cc3)N3CCN(c4ccc(F)cc4)CC3)c(O)n2n1 (stereo unspecified)	-1.6	x
COc1ccc(Cl)cc1NC(=O)CSc1nncn2c1cc1oc(C)cc12	x	3.2
CC(=O)N1C(c2ccccc2)CC(=O)OC1c1ccc2c(c1)OCO2 (stereo unspecified)	-1.4	x
CC(Cc1c[nH]c2ccccc12)C(=O)O (stereo unspecified)	0.94	1.4
CCOC(=O)Cn1c(=O)c(C#N)cn(C(C)C)c1=O	-0.35	x
CSc1ccc(CCNC(=O)CCc2nnc3ccc(N4CCN(C)CC4)nn23)cc1	x	0.6
Nc1nc(N2CCOCC2)nc(Nc2ccccc2F)c1[N+](=O)[O-]	x	0.9
Cn1c(=O)c2cc(C(=O)Nc3nccs3)sc2n(C)c1=O	x	0.25
O=S(=O)(NCCc1csc2nc(-c3cccc(F)c3)nn12)c1ccc(F)cc1F	x	1.1
COc1ccc2c(c1OC)C(=O)OC2Nc1ncccc1C (stereo unspecified)	-0.77	x
O=C(O)c1cccc([N+](=O)[O-])c1C(=O)Nc1nc2c(s1)CCCC2	-2.7	x
O=C(CSc1cn[nH]c(=O)n1)Nc1ccc(Oc2ccccc2)cc1	-3.4	0.43
Cn1c(SCC(=O)c2ccccc2)nnc1-c1ccccc1Br	-0.68	-0.07
CC(C)NC(=O)CSc1nc(-c2ccco2)nc2cc(=O)[nH]n12	x	-0.91
CN1CCN(C(=O)C(=O)c2c[nH]c3ccccc23)CC1	1.1	x
Cc1sc2c(c1C)CSC(C(=O)NCCN1CCCC1)=C2	x	6.3*
O=C(O)CNC(=O)c1cccs1	-1.1	0.4
CCC(C)OC(=O)C1=C(C)NC2=C(C(=O)CC(c3ccccc3)C2)C1c1ccc(O)c(OC)c1 (stereo unspecified)	-1.8	0.69
COc1ccc(N(Cc2ccccc2C)C2=NC3CS(=O)(=O)CC3S2)cc1 (stereo unspecified)	-3.5	1.7
COc1ccc(S(=O)(=O)Nc2c(C)nc3nc(C)[nH]n3c2=O)cc1OC	-0.43	1.8
CC(C)c1ccc(NC(=O)CSc2nnc(Cn3cc(C(F)(F)F)ccc3=O)n2C)cc1	0.44	x
CC(C)(C)c1c(C#N)sc2sc(C#N)c(N)c12	-1.2	x
CCCNCc1ccc(C(=O)O)s1	-0.36	2.5
COc1ccc(OC)c(S(=O)(=O)NCCS(=O)(=O)N2CCN(c3ccccc3F)CC2)c1	x	2.2
CSc1nc(C)nc(-c2cccc(CSc3ccccc3)c2)c1C#N	-0.75	x
Cc1ccsc1C1C2=C(CCCC2=O)Nc2ncnn21 (stereo unspecified)	-1.8	x
O=c1nc(/C=C/c2cccc3ccccc23)cc(C(F)(F)F)[nH]1	-0.77	x
COC(=O)c1cc(S(=O)(=O)Nc2ccc(OC)c(OC)c2)c[nH]1	x	2.9
O=C(CCN1C(=O)COc2ccccc21)NCCN1CCN(Cc2ccccc2)CC1	-1.5	x
c1ccc(-n2nnnc2Oc2cccc3cccnc23)cc1	-0.74	-2.4
Cc1nc2c(C)cccn2c(=O)c1Cc1nnc(SCCOc2ccc(Cl)cc2)n1C	-0.2	-0.55
CC(C)Sc1ncc(Cl)c(C(=O)N(Cc2ccccc2)C2CCS(=O)(=O)C2)n1 (stereo unspecified)	0.05	-0.92
Cc1ccc2oc(SCC(=O)Nc3ccc(F)cc3)nc2n1	x	1.4
Cc1cccc(OCc2cc(=O)n3ccsc3n2)c1	-1.1	0.91
CCO/N=C(\Cc1ccccc1)C1=C(O)CC(C)(C)CC1=O	-1.1	x
CCOCCCNc1cc(N2CCC(C)CC2)c2noc3c2c1C(=O)c1ccccc1-3	-1.3	2.1
COC(=O)CCc1c(C)[nH]n(-c2nc(-c3ccc(C)cc3)cs2)c1=O	-3.7	0.05
C=CCSc1nc2c(c(=O)[nH]1)C(c1cc(F)ccc1F)CC(=O)N2 (stereo unspecified)	-2.3	0.87
CN(Cc1ccccc1)C1CCN(Cc2ccc(Cl)cc2)CC1	-0.3	x
O=C(Nc1ccc(N2CCOCC2)c(Cl)c1)c1cccc(-n2cnnc2)n1	x	2
COc1ccc(Oc2ncnc3c2oc2ccccc23)cc1	x	-0.04
CCc1nc(-c2cc3ccc(C)cc3[nH]c2=O)no1	-1.6	-0.33
CC(=O)N1CCc2cc(S(=O)(=O)NC(CC(C)C)C(=O)Nc3ccc4c(c3)OCCO4)ccc21 (stereo unspecified)	-1.3	0.83
CN1C(=O)c2ccccc2C(C(=O)NCc2ccccn2)C1c1c[nH]c2ccccc12 (stereo unspecified)	-2.4	x
CCC(=O)Nc1ccccc1SCc1cc(=O)n2nc(C3CC3)sc2n1	x	1.4
O=C(Cn1c(=O)c2cccn2c2ccc(F)cc21)NC1CCCC1	x	2.6
CCC(C)NC(=O)CCc1c(C)nc2ncnn2c1C (stereo unspecified)	-1.9	x
(listing goes on)
SMILES	CDC25B-CDK2 inh	TAR Tat displ
CC1=C(c2ccccc2)S(=O)(=O)NC1=NCc1cccs1	-1.3	-1.7
CCOC(=O)CNC(=O)N1CC(C)Sc2ccccc21 (stereo unspecified)	x	1.1
Fc1ccc(-c2cc3c(Cl)nccn3n2)cc1	-1.4	-0.41
CC(C(=O)NCCN1CCOCC1)n1ncn2c(cc3occc32)c1=O (stereo unspecified)	-1.8	1.1
O=C(CC1Oc2ccc(Cl)cc2NC1=O)NCc1ccco1 (stereo unspecified)	-0.49	x
O=C(Nc1nn2c(-c3ccco3)nnc2s1)c1cccc(F)c1	-2.1	-2.6
Clc1ccc(CSc2nncn3c2cc2sccc23)cc1	x	0.09
O=C(Nc1ccc(OC(F)(F)F)cc1)Nc1ccccc1N1CCCCC1	-2.2	x
CC(C)Cn1c(CN2CCN(c3ccccc3F)CC2)nc2c1c(=O)n(C)c(=O)n2C	-1.2	0.32
CCC(C)NS(=O)(=O)c1ccc2c(c1)NC(=O)CC(=O)N2 (stereo unspecified)	x	-0.8
O=C(O)c1ccc2c(c1)C1C3CCC(C3)C1C(c1cccc(Br)c1)N2 (stereo unspecified)	-0.78	3.7
Cc1ccc(NC(=O)NCc2noc3ccccc23)nc1	x	0.75
Cc1cc(Nc2ccc(C)c(Cl)c2)n2nc(-c3ccco3)nc2n1	x	-0.9
O=c1c2cccnc2n(Cc2ccc(F)cc2)c(=O)n1C1CCCCC1	-0.34	-0.55
COCCCNC(=O)c1cnc2c(C)cccn2c1=O	x	0.61
CCN1CCN(c2nc(NCc3ccc(F)cc3)c3cnn(C)c3n2)CC1	x	1.3
Cc1c(C)n(CC(O)CNCCc2ccccc2)c2ccccc12 (stereo unspecified)	-3.1	-0.56
Cc1nn(-c2ccc(N3CCCCC3)nn2)c(C)c1CCC(=O)NC1CCCC1	x	0.02
CC(=O)N(c1ccc(Cl)cc1)c1nc(C)cc(C)c1C#N	-0.29	x
COC(=O)c1sccc1S(=O)(=O)Nc1ccccc1F	x	2
Nc1ncnc2nc(SCCOc3ccc(Cl)cc3)[nH]c12	-0.55	x
O=C1N(Cc2ccc(F)cc2)C2CS(=O)(=O)CC2N1c1ccccc1 (stereo unspecified)	x	0.85
C=CCN1C(=O)C2C(C(=O)Nc3ccc(Cl)cc3)C3C=CC2(O3)C1C(=O)NC1CCCC(C)C1C (stereo unspecified)	x	-1.9
O=C1c2cccc3cccc(c23)C(=O)N1CCCCN1CCN(c2ccccc2Cl)CC1	-1.3	0.89
CC(C)(C)OC(=O)C1=NN(c2ccc(Cl)cc2)c2ccccc2S1(=O)=O	0.11	0.61
O=C(NC1CCCCNC1=O)c1cn(S(=O)(=O)c2ccccc2)c2ccccc12 (stereo unspecified)	-1.8	x
CC(C)CC(=O)OCc1cc(=O)n2ccsc2n1	x	0.35
CCN(CCS(=O)(=O)N1CCNCC1)S(=O)(=O)c1ccc(F)cc1	x	2.4
O=C(Cn1cnc2c(oc3ccccc32)c1=O)N1CCN(c2ccccc2)CC1	-1.9	1
CC1(C)CC(=O)C2=C(C1)Nc1ccccc1N(Cc1ccccc1F)C2c1ccco1 (stereo unspecified)	x	0.62
COc1cc2[nH]c(=S)nc(NCc3ccc4c(c3)OCO4)c2cc1OC	-1.8	x
Cc1ccc(C(=O)O)cc1N1CC(O)=C(c2nc3ccccc3[nH]2)C1=N	-2.2	0.36
CCC(=O)N1c2c(C)cc(C)cc2C(=C2SC(C(=O)OC)=C(C(=O)OC)S2)C(=S)C1(C)C	0.26	2.5
COc1ccccc1Cn1cc2c(-c3ccc(F)cc3)nnc-2c2cc3c(cc21)OCCO3	-1.2	2.4
COc1ccc(Cl)cc1S(=O)(=O)NCc1cccn1Cc1ccc(F)cc1	x	-0.08
CCC(=O)OC1[C@@H]2CC3=C4CC(=O)O[C@@H](c5ccoc5)[C@]4(C)CCC3C(C)(C2=O)[C@@H](CC(=O)OC)C1(C)C (stereo partly specified)	x	0.08
O=C(O)c1cccc(Nc2ncnc3c2cnn3-c2ccccc2)c1	0.69	1.2
O=C1CC(c2ccccc2)CC2=C1C(c1ccccn1)Nc1ccccc1N2 (stereo unspecified)	-2	1.2
COCCOC(=O)C1=C(C)NC2=C(C(=O)CCC2)C1c1ccc(Cl)cc1 (stereo unspecified)	-1.3	0.1
CCCc1nn2c(=O)cc(COC(=O)c3ccco3)nc2s1	x	-0.78
Cc1nnc2c3ccccc3nc(Nc3ccccc3O)n12	x	-6.5
CCOC(=O)c1c(NC(=O)CN(CC)CC)sc2c1CCCC2	-2.9	2.7
CS(=O)(=O)N1CCc2cc(C(=O)N3CCCCC3)ccc21	-2.5	1.5
COC(=O)c1cc(-c2ccc(S(=O)(=O)Nc3ccc(OC)cc3OC)s2)on1	x	0.33
COc1ccccc1-n1nnc(-c2nc(-c3ccccc3)no2)c1N	x	0.18

Structures shown so far that contain a cyano group:
SMILES	CDC25B-CDK2 inh	TAR Tat displ
CCOC(=O)Cn1c(=O)c(C#N)cn(C(C)C)c1=O	-0.35	x
CC(C)(C)c1c(C#N)sc2sc(C#N)c(N)c12	-1.2	x
CSc1nc(C)nc(-c2cccc(CSc3ccccc3)c2)c1C#N	-0.75	x
CC(=O)N(c1ccc(Cl)cc1)c1nc(C)cc(C)c1C#N	-0.29	x

Six entries out of the list, ordered by formula weight, ascending:
SMILES	CDC25B-CDK2 inh	TAR Tat displ
CCC(C)NC(=O)CCc1c(C)nc2ncnn2c1C (stereo unspecified)	-1.9	x
c1ccc(-n2nnnc2Oc2cccc3cccnc23)cc1	-0.74	-2.4
COc1ccc(Oc2ncnc3c2oc2ccccc23)cc1	x	-0.04
O=C1CC(c2ccccc2)CC2=C1C(c1ccccn1)Nc1ccccc1N2 (stereo unspecified)	-2	1.2
O=C(CCN1C(=O)COc2ccccc21)NCCN1CCN(Cc2ccccc2)CC1	-1.5	x
O=S(=O)(NCCc1csc2nc(-c3cccc(F)c3)nn12)c1ccc(F)cc1F	x	1.1

Continuation:
SMILES	CDC25B-CDK2 inh	TAR Tat displ
Nc1ccc(S(=O)(=O)c2ccc(N)cc2)cc1	x	2.5
O=C(Nc1ccc(S(=O)(=O)Nc2ncccn2)cc1)c1cnc2sccn2c1=O	-0.79	x
COC(=O)CNC(=O)C1CCN(S(=O)(=O)c2cnc[nH]2)CC1	0.45	-0.34
CCN1CCN(C2=NS(=O)(=O)C(c3ccc(Cl)cc3)=C2C)CC1	-2.5	-0.82
O=C(Nc1ccccc1SCc1cc(=O)n2[nH]c(-c3ccccc3)nc2n1)c1cccs1	x	1.6
CCOC(=O)C1=C(C)NC2=C(C(=O)CC(c3cccs3)C2)C1c1coc2ccc(C)cc2c1=O (stereo unspecified)	-0.01	1.1
CC(C)Cc1nc2sc3c(N4CCOCC4)ncnc3c2c2c1COC(C)(C)C2	-0.46	x
Cc1ccc(NS(=O)(=O)c2cc(-c3noc(C)n3)cs2)c(Br)c1	x	0.26
CCN(CC)S(=O)(=O)c1cc(-c2ccc(=O)[nH]n2)cc(C)c1C	x	0.72
COc1cc(O)ccc1C(C)=O	x	2
Cc1nn(-c2ccc3nnc(C)n3n2)c2c1C(c1ccccc1OCc1ccc(F)cc1)CC(=O)N2 (stereo unspecified)	x	0.63

Entries of single compounds from above. Order of values: CDC25B-CDK2 inh, TAR Tat displ
O=C(Nc1ccc(S(=O)(=O)Nc2ncccn2)cc1)c1cnc2sccn2c1=O is listed as -0.79, x
O=C(Nc1ccccc1SCc1cc(=O)n2[nH]c(-c3ccccc3)nc2n1)c1cccs1 is listed as x, 1.6
CCOC(=O)C1=C(C)NC2=C(C(=O)CC(c3cccs3)C2)C1c1coc2ccc(C)cc2c1=O (stereo unspecified) is listed as -0.01, 1.1
CCN1CCN(C2=NS(=O)(=O)C(c3ccc(Cl)cc3)=C2C)CC1 is listed as -2.5, -0.82
Nc1ccc(S(=O)(=O)c2ccc(N)cc2)cc1 is listed as x, 2.5

Compound activity deposited in PubChem BioAssay by Center for Chemical Genomics, University of Michigan.
